Assay outcomes (PubChem BioAssay)
B2AR ag: beta2AR agonists driving receptor internalization, primary screen, cell-based, FAP fluorogen, flow cytometry; Beta-2 adrenergic receptor (Homo sapiens), P07550; Am2.2-beta2AR cells; reference of the scale not given here; response, % (test concentration not listed); 340,000 tested, 0.43% active; AID 504454, 2011;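 active = response above a set limit, near 3 SD of response in nonfluorescent compounds, cut at about 42% in these data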;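 note: stock transfer was 100 nL into about 11 µL; a reference agonist was the positive control; negative values mostly stem from fluorescent compounds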
UCH37 DUB inh: inhibitors of human UCH37 deubiquitinase, primary screen, biochemical, Ub-AMC cleavage, fluorescence | Ubiquitin carboxyl-terminal hydrolase isozyme L5 (Homo sapiens), Q9Y5K5 | purified proteasome/UCH37 | inhibition, % (no concentration beside the values) | 330,000 tested, 0.33% active;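 active = mean of two replicates above 20%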;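 note: 0% = compound-free wells with enzyme and 100% = wells lacking proteasome; stock transfer was 100 nL into about 20 µL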
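Schedule: 30 min plus 25 min, room temperature / Material: human UCH37 within purified proteasomes / Technique: AMC fluorescence intensity at 355/460 nm / Buffer or medium: pH 7.4 Tris-HCl (50 mM) with ovalbumin, ATP-MgCl2, DTT / Controls: wells without proteasome as full block, compound-free enzyme plus substrate as uninhibited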
ALR inh: inhibitors of human ALR sulfhydryl oxidase, primary screen, biochemical, H2O2 detection, HRP-luminol luminescence, single point. FAD-linked sulfhydryl oxidase ALR (Homo sapiens), P55789. purified ALR, DTT oxidation. inhibition, % (concentration not given with the values). 290,000 tested, 3.8% active. AID 485317, 2010;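 active = mean and each replicate at 75% or more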;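 note: stock transfer was 7.5 nL into about 7.5 µL; 0% = neutral wells and 100% = wells with inactivated enzyme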
Target sequence (P55789 whole entry, looked up): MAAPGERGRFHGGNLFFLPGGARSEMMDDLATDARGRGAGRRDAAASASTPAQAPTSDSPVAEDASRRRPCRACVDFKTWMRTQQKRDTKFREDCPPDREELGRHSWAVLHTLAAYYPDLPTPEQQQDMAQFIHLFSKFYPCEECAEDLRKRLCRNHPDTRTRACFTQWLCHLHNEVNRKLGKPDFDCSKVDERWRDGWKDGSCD
HNF4A DNA FP: change in binding of human HNF4A to DNA, primary screen, biochemical, fluorescence polarization, FITC-DNA; activity change, % at 10 µM; Hepatocyte nuclear factor 4-alpha (Homo sapiens), P41235; 1 h; 360,000 tested, 0.3% active; in the data active = activity change above about 30%, passing the limit was not always enough;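 note: controls were the assay level and a saturating level of protein; the project sought stronger binding though the title names inhibitors; some compounds called inactive have numbers as strong as hits; positive values seem to mean higher polarization but the record does not say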
Target sequence (P41235 whole entry, looked up): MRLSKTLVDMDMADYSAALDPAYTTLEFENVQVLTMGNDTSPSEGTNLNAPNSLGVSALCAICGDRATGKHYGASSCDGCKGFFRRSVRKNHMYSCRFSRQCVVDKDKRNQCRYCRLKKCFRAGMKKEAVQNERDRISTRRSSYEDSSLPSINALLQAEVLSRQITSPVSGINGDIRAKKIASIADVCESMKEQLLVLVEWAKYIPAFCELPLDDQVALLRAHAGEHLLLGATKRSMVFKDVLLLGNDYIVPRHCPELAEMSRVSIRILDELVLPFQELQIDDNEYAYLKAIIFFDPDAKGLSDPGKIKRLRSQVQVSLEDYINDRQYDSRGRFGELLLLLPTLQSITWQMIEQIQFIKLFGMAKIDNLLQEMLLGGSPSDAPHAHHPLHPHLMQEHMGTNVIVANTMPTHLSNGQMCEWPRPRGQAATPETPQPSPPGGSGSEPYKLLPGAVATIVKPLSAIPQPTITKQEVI
LANA-H2B inh: blockers of LANA interaction with H2A/H2B – biochemical, FP readout, HTS, primary screen; inhibition, % (concentration not given with the values); Protein LANA1 (Human herpesvirus 8 type P (isolate GK18)), Q9QR71; 320,000 tested, 0.6% active; cell-free LANA-H2A/H2B peptide, fluorescence polarization; AID 2629, 2010; in the data active = inhibition mostly above about 10%, no sharp cut-off; inactive = mostly below about 6.7%;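 note: stock transfer was 7.5 nL into about 10 µL; 0% = median of vehicle wells and 100% = median of positive control wells; one replicate is shown; the record names a cut of 25% in any replicate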
FGF22 binding: binders of human FGF22 protein, primary screen, FGF22 synaptogenesis inhibitor project, biophysical, thermal shift, single point; recombinant FGF22 thermal shift, SYPRO orange fluorescence; percent of sucrose octasulfate shift, DMSO zero; calls only at 9.99 µM; 340,000 tested, 1.5% active;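 active = melting point raised past a set limit in the mean and every replicate; three in four hits are not shown here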
Target sequence (Q9HCT0 whole entry, looked up): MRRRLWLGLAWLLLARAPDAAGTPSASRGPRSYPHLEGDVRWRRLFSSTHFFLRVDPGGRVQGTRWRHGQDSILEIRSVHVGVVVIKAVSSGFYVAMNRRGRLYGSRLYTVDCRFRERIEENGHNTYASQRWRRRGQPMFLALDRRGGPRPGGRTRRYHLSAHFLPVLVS
E coli growth: E. coli growth inhibition, primary screen, OD600; Escherichia coli growth, 23 h; hits give low values; OD600 absorbance (test concentration not listed); 330,000 tested, 0.21% active; AID 1053175, 2014;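 active = OD600 absorbance below the run mean of sample wells minus 3.6 SD, in any replicate, cut at about 0.56 in these data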;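 note: stock transfer was 300 nL into about 60 µL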
Active calls of the source: *; i = inactive; x = no result given; + = active, no number. A portion of the library; rates above refer to the full screens.

Fields – B2AR ag, UCH37 DUB inh, ALR inh, HNF4A DNA FP, LANA-H2B inh, FGF22 binding, E coli growth
#1 Cc1ccc(C2NC(=O)NC(O)(C(F)(F)F)C2C(=O)c2ccccc2)o1 (centres undefined)
  7, 3.4, -12, -3.2, 8.9, x, 0.67
#2 O=C(CSc1nc2ccsc2c(=O)n1CC1CCC(C(=O)O)CC1)c1ccc(F)cc1 (centres undefined)
  9, 1.4, 6, 2.2, -1.8, i, 0.67
#3 CC(C)C1Nc2ccc(C(=O)NCCCN3CCOCC3)cc2NC1=O (centres undefined)
  3, 2.2, 5, 1.5, -4.4, x, 0.7
#4 Cc1ccc(NC(=S)/N=C(\N)Nc2nc(C)c3cc(C)ccc3n2)c(C)c1
  -2, x, x, 5.0, 1.8, i, x
#5 Cc1ccc2c(c1)c(N=Nc1ccc([N+](=O)[O-])cc1)c(O)n2C
  -1, 6.3, -4, 3.9, 2.0, i, 0.7
#6 CC12CCC(=O)N1C(C(=O)Nc1ccc(F)c(F)c1F)CS2 (centres undefined)
  14, 3.4, 5, 0.3, -8.9, i, 0.66
#7 COc1ccc(OCC(=O)NNC(=O)c2cccc(S(=O)(=O)N(C)C)c2)cc1
  6, 0.2, -11, -0.1, -2.8, x, 0.68
#8 COc1cc(C(=O)NCc2cc3ccccc3n2C)cc(OC)c1OC
  -1, 3.1, -2, 0.2, 2.7, i, 0.71
#9 CC(C)c1nc(SCC(=O)Nc2ccc3c(c2)OCCO3)c2c(=O)n(C)c(=O)n(C)c2n1
  3, 1.2, -14, 0.1, -1.9, i, 0.74
#10 Cc1cc(NC(=O)COc2ccc(F)c(Cl)c2)no1
  8, -0.1, -7, 3.6, -2.9, i, 0.71
#11 CC(=O)c1cn(C)c(=O)c2ccccc12
  -1, 1.9, 1, 6.4, -3.2, i, 0.65
#12 Nn1c(SCC(=O)Nc2cccc(C(F)(F)F)c2)nncc1=O
  -3, 6.3, 97*, -2.7, 4.8, i, 0.72
#13 O=C(OCc1ccc([N+](=O)[O-])cc1)c1cc([N+](=O)[O-])ccc1N1CCOCC1
  6, 2.7, x, 1.4, x, i, 0.65
#14 CCS(=O)(=O)N1CCC(C(=O)c2ccc(Cl)cc2)CC1
  8, 2.0, -2, -0.4, 8.4, x, 0.7
#15 COc1cc(/C=C2\SC(N)=NC2=O)cc(Cl)c1O
  16, 6.0, -2, 29, 0.7, i, 0.67
#16 Cc1c(NC(=O)CSc2ccccn2)c(=O)n(-c2ccccc2)n1C
  0, 1.5, -9, 2.5, -1.8, x, 0.66
#17 CSCC[C@H](NC(=O)COc1ccc(Cl)cc1)c1nc2ccccc2[nH]1
  -6, -1.8, -4, 4.4, 0.3, x, 0.65
#18 COc1ccc2c(c1)c1ncn(CCc3ccccc3)c(=O)c1n2C
  0, -279, 91*, -0.9, 4.4, x, 0.7
#19 Cc1ccccc1C(=O)NC(CC(C)C)C(=O)OCc1cc(=O)n2cc(Br)ccc2n1 (centres undefined)
  -11, 1.0, -7, -2.1, 2.5, x, 0.72
#20 O=C(c1cc2ccccc2oc1=O)N1CCCN(C(=O)c2cc3ccccc3oc2=O)CC1
  0, -18, x, 3.4, x, i, 0.7
#21 Cc1cccc(NC(=O)Nc2ccc(C)cc2Br)c1
  -1, 1.2, 1, 0.7, 0.3, x, 0.69
#22 COc1ccc(NC(=O)C(=O)N/N=C/c2cccnc2)c(OC)c1
  7, x, -1, -1.8, 3.2, i, x
#23 CC(=O)Cc1nsc(NC(=O)c2ccc(-c3cccc(C(F)(F)F)c3)o2)n1
  -12, 0.0, x, -0.8, 2.8, x, 0.71
#24 O=C(CNC1CCCCC1)Nc1cccc(C(F)(F)F)c1
  -4, 4.2, -16, 3.7, -3.2, i, 0.64
#25 Cc1ccccc1N=Cc1c(O)n(-c2nccs2)c(=O)c2ccccc12
  -5, 7.4, -5, 0.7, -3.2, i, 0.69
#26 CC1(c2ccc3c(c2)OCCCO3)NC(=O)N(CC(=O)NCCc2ccccc2)C1=O (centres undefined)
  -5, 3.1, -4, 2.6, 3.6, i, 0.65
#27 NC(=O)c1ccc(NC(=O)CSc2nnc(C3CCCCC3)n2N)cc1
  0, 0.4, -5, 0.4, 1.1, i, 0.63
#28 COc1ccc2c(c1)C(=O)[C@H](O)[C@@H](c1ccc(OC)c(Br)c1)O2
  x, x, 3, x, -1.6, i, x
#29 O=[N+]([O-])c1ccc2c(c1)nc1n2CCCCC1
  0, 4.1, -2, 1.6, 1.5, i, 0.65
#30 COc1ccc(CN2CCNC(=O)C2CC(=O)N(C)Cc2nc(C)cs2)c(OC)c1 (centres undefined)
  0, -0.3, -12, -1.2, -0.1, i, 0.67
#31 CC(C)CC(=O)NNC(=O)C(C)C
  0, 2.1, 7, -3.4, -1.4, i, 0.65
#32 CN1C(=O)C(C(=O)Nc2ccccc2F)c2ccccc21 (centres undefined)
  2, 2.8, -3, -3.1, -5.3, i, 0.68
#33 COc1cccc(-c2sc3ccc(OC)cc3c2-c2ccc(OC)cc2F)c1
  -3, 0.9, -2, 2.5, -2.0, i, 0.7
#34 CC1(c2ccc(OC(F)F)cc2)NC(=O)N(CC(=O)NC2CCCCC2)C1=O (centres undefined)
  7, 0.3, x, -1.9, 0.8, x, 0.6
#35 CC(Oc1ccc2c3c(c(=O)oc2c1)CCCC3)C(=O)NCc1ccccn1 (centres undefined)
  -21, -105, -7, -0.4, 1.6, i, 0.65
#36 CCn1c2ccccc2c2cc(/C=N/NC(=O)c3ccncc3)ccc21
  13, x, -1, 5.8, -3.4, +, x
#37 COCCSc1nnc(NC(=O)CS(=O)(=O)c2ccccc2)s1
  3, 4.1, -1, 0.0, -2.9, x, 0.67
#38 Cc1ccccc1C(C)NS(=O)(=O)c1ccc2c(c1)OCCO2 (centres undefined)
  -2, 0.9, 0, 2.9, -0.8, i, 0.65
#39 CC(C)n1nnc(-c2ccc(OCc3ccccc3F)cc2)n1
  1, 4.2, -5, -2.2, 1.1, i, 0.68
#40 CCOC(=O)C(C)/C(C)=N/NC(=O)CCC(=O)Nc1cc(C)ccc1C (centres undefined)
  2, x, 1, -0.6, -0.4, i, x
#41 CC(C)NC(=O)N(Cc1ccccc1)Cc1cccs1
  -5, 6.7, -3, 0.4, 3.5, i, 0.7
#42 O=C(N/N=C/c1cccs1)C1CC(=O)N(c2ccccc2)C1 (centres undefined)
  -9, x, -4, 0.9, -0.8, x, x
#43 COC(=O)c1ccc(C2c3c(n[nH]c3C)C(=O)N2c2ccc(C)cc2)cc1 (centres undefined)
  -9, 3.8, -4, -1.5, 1.0, i, 0.77
#44 Cc1cccc2cc(CN(Cc3cccs3)C(c3nnnn3C3CCCC3)C(C)C)c(=O)[nH]c12 (centres undefined)
  -6, 5.1, x, 0.3, x, x, 0.79
#45 CCOC(=O)[C@@H]1[C@H]2COc3cc(OC)ccc3[C@@H]2N2C(=O)N(c3ccc(C(F)(F)F)cc3)C(=O)[C@]12C
  -1, -1.4, -2, -2.5, -4.3, i, 0.83
#46 CCS(=O)(=O)c1nc(S(=O)(=O)c2ccc(C)cc2)c(N2CC(C)CC(C)C2)s1 (centres undefined)
  -3, 1.2, -3, -4.2, -1.1, i, 0.73
#47 Cc1ccc(CNC(=S)Nc2cc(C(=O)O)ccc2C)cc1
  -4, 1.4, 3, 7.2, 1.4, i, 0.69
#48 CCc1ccc(CNC(=O)CCc2cn(C)c3ccccc23)cc1
  13, 4.7, -3, -5.5, 12, i, 0.67
#49 CC(NC(=O)C(=O)NCCCn1ccnc1)c1ccccc1 (centres undefined)
  5, 1.6, -9, 2.6, -2.1, i, 0.72
#50 Cc1ccc(C(=O)N/N=C\C2CC=CCC2)cc1[N+](=O)[O-] (centres undefined)
  4, x, -1, -2.0, -5.4, i, x
#51 O=C(NCc1ccc2c(c1)OCO2)c1ccc(CS(=O)Cc2cccc(Cl)c2)o1 (centres undefined)
  -1, 4.0, 94*, -1.9, -1.4, i, 0.64
#52 CSCCC(NC(=O)COc1ccccc1)C(=O)N1CCN(c2ccccc2O)CC1 (centres undefined)
  -7, 4.8, 59, -2.5, -5.8, i, 0.67
#53 O=C(NCc1ccccc1)c1ccccc1NC(=O)C1CCCCC1
  6, -0.4, 4, 21, -0.9, i, 0.66
#54 Cc1ccc2c(=O)c(C(=O)c3ccc(F)cc3)cn(CC(=O)NCc3ccco3)c2n1
  0, 2.6, 2, -4.1, -1.0, i, 0.69
#55 CCN(CC)S(=O)(=O)c1ccc(N(C)CCc2ccc(OC)c(OC)c2)nc1
  8, -0.1, -19, 5.3, -0.3, i, 0.68
#56 OCCC1CN(CCCn2cccn2)CCN1C1CCCCC1 (centres undefined)
  -1, 2.0, x, 3.3, x, i, 0.71
#57 COc1ccc(Cc2nnc(SCC(=O)Nc3ccccc3C#N)o2)cc1
  10, 1.2, -2, -1.1, 3.9, i, 0.65
#58 CC(=O)NC1=NC(=O)/C(=C/N2CCOCC2)S1
  -5, 3.6, -3, -0.2, -1.4, x, x
#59 Fc1cc(F)cc(NC(=S)Nc2ccccc2N2CCOCC2)c1
  -6, 5.4, 14, 1.2, 4.1, i, 0.62
#60 COCCNC(=O)[C@@H]1CCCN1S(=O)(=O)c1cccc2cccnc12
  -4, 0.9, x, 3.1, -3.0, i, x

ALR inh, what is marked active above.
cpd | canonical_smiles | B2AR ag | UCH37 DUB inh | ALR inh | LANA-H2B inh | FGF22 binding
12 | Nn1c(SCC(=O)Nc2cccc(C(F)(F)F)c2)nncc1=O | -3 | 6.3 | 97* | 4.8 | i
18 | COc1ccc2c(c1)c1ncn(CCc3ccccc3)c(=O)c1n2C | 0 | -279 | 91* | 4.4 | x
51 | O=C(NCc1ccc2c(c1)OCO2)c1ccc(CS(=O)Cc2cccc(Cl)c2)o1 (centres undefined) | -1 | 4.0 | 94* | -1.4 | i

Further entries follow.
Fields – B2AR ag, UCH37 DUB inh, ALR inh, HNF4A DNA FP, LANA-H2B inh, FGF22 binding, E coli growth
#61 COC(=O)c1[nH]c2ccccc2c1NC(=O)c1c(F)cccc1F
  17, 1.4, -17, -3.6, -2.7, i, 0.65
#62 Cc1ccc(OCc2cc(C(=O)NC(C)Cc3cnccn3)no2)cc1C (centres undefined)
  -5, 0.8, 13, 1.3, -1.4, i, 0.67
#63 CCc1ccccc1NC(=O)C1CCN(C(=O)c2ccc([N+](=O)[O-])cc2)CC1
  3, 0.1, -2, -0.9, -2.3, i, 0.69
#64 C=CCN(C(=O)Nc1ccc(Cl)cc1)C1CC(=O)N(c2ccc(OC)cc2)C1=O (centres undefined)
  -3, 1.1, -4, -1.6, 0.0, x, 0.67
#65 CCCN(CCC)c1ccc(CC(=O)NC(C)Cc2ccccc2)cc1 (centres undefined)
  4, -1.3, 98*, 0.9, -2.3, i, 0.72
